# High-throughput results deposited in PubChem BioAssay by ICCB-Longwood Screening Facility, Harvard Medical School.
# Mtb MenB inh = M. tuberculosis MenB inhibitors, primary screen, biochemical, absorbance | 1,4-dihydroxy-2-naphthoyl-CoA synthase (Mycobacterium tuberculosis (strain ATCC 25618 / … | MenB enzyme assay, absorbance read-out; some hits fall short of the stated cut | inhibition, %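 (about 12 µg/mL by stock and volumes)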 | 100,000 tested, 0.43% active | AID 540299, 2011;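 active = mean of two replicates above 30%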;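 note: 0% = no compound and 100% = wells with inactive enzyme; the first replicate is given; strong numbers were not always called active; inactives centre near -10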
# Target sequence (P9WNP5 whole entry, looked up): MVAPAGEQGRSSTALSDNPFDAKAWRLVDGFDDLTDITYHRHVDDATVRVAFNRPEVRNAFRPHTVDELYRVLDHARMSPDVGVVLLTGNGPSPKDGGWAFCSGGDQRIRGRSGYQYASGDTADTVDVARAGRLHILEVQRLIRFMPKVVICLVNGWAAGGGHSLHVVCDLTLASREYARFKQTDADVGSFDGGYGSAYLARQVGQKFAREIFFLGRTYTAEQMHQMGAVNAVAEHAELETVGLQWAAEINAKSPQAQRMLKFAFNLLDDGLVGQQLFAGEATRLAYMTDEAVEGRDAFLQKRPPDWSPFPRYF
# MbtI inh = MbtI salicylate synthase inhibitors, primary screen, biochemical, fluorescence intensity | 100,000 tested, 0.89% active | inhibition, %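 (about 17 µg/mL by stock and volumes)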 | P9WFX0 | purified MbtI enzyme, fluorescence intensity read-out;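 active = above 50% in both replicates, above 80% if mildly self-fluorescent; inactive = the rest, strongly fluorescent compounds included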;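 note: 0% = mean of negative and 100% = mean of positive controls; one replicate is shown; some compounds called inactive have numbers as strong as hits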
# PV pol inh = poliovirus RdRp elongation inhibitors, primary screen, biochemical, fluorescence polarization, total intensity. Genome polyprotein (Poliovirus type 1 (strain Mahoney)), P03300. poliovirus polymerase elongation; hits give low values. % elongation, % (compound at 16.7 µg/mL). AID 588519, 2011. 150,000 tested, 0.66% active; in the data active = % elongation below about 90%; note: some results filed as inactive read as strong as hits
# Target sequence (P03300 1749-2209 limits assumed): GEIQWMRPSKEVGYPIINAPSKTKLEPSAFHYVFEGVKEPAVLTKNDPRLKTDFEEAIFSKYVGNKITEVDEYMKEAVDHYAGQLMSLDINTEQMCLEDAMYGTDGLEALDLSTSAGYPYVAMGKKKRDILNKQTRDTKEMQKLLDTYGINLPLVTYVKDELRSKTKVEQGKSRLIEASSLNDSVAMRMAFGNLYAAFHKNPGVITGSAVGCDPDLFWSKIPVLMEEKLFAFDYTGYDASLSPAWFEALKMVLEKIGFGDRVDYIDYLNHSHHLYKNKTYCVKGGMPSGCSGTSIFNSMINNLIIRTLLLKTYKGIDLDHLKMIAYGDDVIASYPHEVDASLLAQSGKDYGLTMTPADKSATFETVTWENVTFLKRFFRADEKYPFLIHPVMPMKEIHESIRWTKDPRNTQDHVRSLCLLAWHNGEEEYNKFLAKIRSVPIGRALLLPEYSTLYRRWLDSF
# PV pol inh intensity = further read-out of PV pol inh, marked with its call; % elongation; measured here: total intensity read-out; formula for this scale not given here;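 total fluorescence in place of polarization; lower means less elongation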
# The depositor's hits bear a star; x = not tested or not shown.
no.	SMILES	Mtb MenB inh	MbtI inh
1	Cc1ccc(N2CNC(=O)c3c(C)cc(C)nc32)cc1	-2	10
2	CC(C)(C)C(=O)ON=C(c1cccs1)c1cccs1	-11	4
3	CN1/C(=C/C(=O)C(C#N)C2=NCCC2)C(C)(C)c2ccccc21 (configuration not stated)	x	-1
4	C/C(=N\NC(=O)c1ccc2c(c1)OCO2)c1cc(F)ccc1O	-93	-6
5	CC1SC2(CCCCC2)N(c2ccc(Cl)cc2)C1=O (configuration not stated)	0	-59
6	Cc1ccc(S(=O)(=O)NC(=O)NCc2ccccc2)cc1	0	-14
7	CC(C)c1ccc(C(=O)CC#N)cc1	-16	2
8	COCCNC(=O)Cn1cc(/C=C2\C(=O)NC(=O)N(C3CCCCC3)C2=O)c2ccccc21	10	-3
9	COc1ccc(C(=O)Oc2c(C)cc(C(O)(C(F)(F)F)C(F)(F)F)cc2C)cc1	-24	x
10	CCc1ccc(Oc2c(C(F)(F)F)oc3c(CN4CCCCC4)c(O)ccc3c2=O)cc1	-36	-7

no.	PV pol inh	PV pol inh intensity
1	100	102
2	102	106
3	106	114
4	106	114
5	103	110
6	102	98
7	101	107
8	100	107
9	104	100
10	101	106

# Additional records.
no.	SMILES	Mtb MenB inh	MbtI inh
11	O=C(O)C1Cc2ccccc2C1	-17	-4
12	CC(C)c1cc(NC(=O)COC(=O)c2ccccc2CSc2ncn[nH]2)on1	1	-10
13	CCOC(=O)/C=C1\SCC(=O)N1Cc1ccc(Br)cc1	-8	-3
14	Nc1c(C(=O)c2ccccc2)sc2nccc(Nc3ccccc3)c12	-34	x
15	CCn1c(-c2ccc(C)cc2)cnc1SCC(=O)NCC1CCCO1 (configuration not stated)	11	20
16	Cc1nc(SCC(=O)O)oc1C	11	-8
17	O=C1/C(=C\c2ccco2)N=C(SCn2nnc3ccccc3c2=O)N1c1ccc(OC(F)F)cc1	-67	6
18	COc1cccc(C(=O)CN2C(=O)/C(=C/c3ccco3)N=C2c2ccccc2)c1	-20	3
19	CC(=O)N1C(=O)C2(OCC3(CO2)COC2(OC3)C(=O)N(C(C)=O)c3ccccc32)c2ccccc21 (configuration not stated)	-11	-9
20	COCCSc1ccccc1C(=O)N1CCCC1	-13	19

no.	PV pol inh	PV pol inh intensity
11	110	108
12	104	109
13	100	98
14	102	107
15	103	104
16	102	99
17	105	103
18	100	97
19	97	102
20	102	103

# The listing continues:
no.	SMILES	Mtb MenB inh	MbtI inh
21	COC(=O)c1sc(N)c(C(=O)OC)c1CSc1nncn1-c1ccccc1	-12	12
22	O=C(OCC(=O)c1c[nH]c2ccccc12)c1cccc(S(=O)(=O)N2CCOCC2)c1	-28	3
23	COC(=O)c1ccc(OC)c(CSc2nnc(COc3cc(C)cc(C)c3)o2)c1	-26	28
24	O=C(COC(=O)Cc1c(F)cccc1Cl)NCc1ccc(Cl)cc1	x	-9
25	CC(C)(C)OC(=O)N1CCCC1C(=O)Oc1ccc2c(=O)c(-c3ccc4c(c3)OCCO4)coc2c1 (configuration not stated)	-13	x
26	CC(=O)Nc1ccc(S(=O)(=O)NCC(=O)OC2CCOC2=O)cc1 (configuration not stated)	3	-2
27	Cc1nc(COc2cc(C)c(Cl)c(C)c2Cl)cs1	6	0
28	COc1ccccc1/C=C1\SC(=O)N(CC(=O)N2CCOCC2)C1=O	-37	2
29	CCCN(CCC)Cn1nc(-c2ccncc2)n(CCCOCC)c1=S	1	13
30	COC(=O)c1c[nH]n2c(=O)c3c(nc12)CCN(Cc1ccccc1)C3	13	6

no.	PV pol inh	PV pol inh intensity
21	105	106
22	106	99
23	102	102
24	102	106
25	99	107
26	100	106
27	102	97
28	102	104
29	101	105
30	98	101

# Following part
no.	SMILES	Mtb MenB inh	MbtI inh
31	O=C(O)C1Oc2ccccc2O1	-30	-6
32	COc1cccc(NC(=O)CSc2nnc(C)o2)c1	6	-14
33	Cc1ccc(-c2nnn(CCC(=O)NC(C)(C)C)n2)cc1	-23	-5
34	O=C1N=c2ccccc2=C1c1sc2ccccc2c1O	-31	-1
35	C(=N\c1nccs1)/N1CCOCC1	0	26
36	O=C(NC1CCCC1)C1CCCN(S(=O)(=O)c2ccc(-n3cnnn3)cc2)C1 (configuration not stated)	-9	1
37	O=S(=O)(CCSc1ccc(C(F)(F)F)cn1)c1ccc(Cl)cc1	-5	19
38	CCOc1ncccc1C(=O)OCc1ccc(C(=O)OC)o1	-35	-6
39	O=C1C2Cc3ccccc3CN2C(=S)N1c1ccccc1 (configuration not stated)	-2	4
40	CCC(C)N(C(=O)Cn1c(=O)cnc2ccccc21)C1CCS(=O)(=O)C1 (configuration not stated)	-8	17

no.	PV pol inh	PV pol inh intensity
31	104	102
32	100	108
33	101	104
34	99	102
35	99	96
36	103	99
37	102	99
38	99	99
39	102	109
40	102	104

# (more compounds)
no.	SMILES	Mtb MenB inh	MbtI inh
41	C/C(=N/NC(=O)c1c(N)no[n+]1[O-])c1cccs1	-41	3
42	Cc1ccc(-c2cc(-c3ccccc3)nc(N)c2C#N)o1	-3	-122
43	COC(=O)c1cc2ccc(C)cc2[nH]1	-4	52
44	Cc1ccc2[nH]c3nc(SCC(=O)O)nnc3c2c1	-11	14
45	COc1ccc(Cl)cc1NC(=O)c1cc2c(Cl)nc3ccc(C)cc3c2s1	-11	0
46	O/N=C1\Cc2cccc3cccc1c23	-6	58
47	O=C(CN1CCCCCC1=O)N/N=C/c1c(Cl)nc2sccn12	-9	24
48	O=C(OCCN1C(=O)c2ccccc2C1=O)Oc1ccccc1	-8	10
49	CCOC(=O)c1sc(N)c(C#N)c1COC(=O)c1nn(CC)c(=O)c2ccccc12	-37	-2
50	Cc1cccc(CS(=O)(=O)Cc2ccc(C(=O)NCCC3=CCCCC3)o2)c1	2	1

no.	PV pol inh	PV pol inh intensity
41	103	104
42	102	109
43	101	103
44	101	100
45	101	98
46	100	104
47	97	104
48	98	100
49	45	244
50	103	97

# Other records follow.
no.	SMILES	Mtb MenB inh	MbtI inh
51	Cc1cc(C)n(CC(O)Cn2c3ccccc3c3ccccc32)n1 (configuration not stated)	-16	1
52	CCCCN(C)S(=O)(=O)c1ccc2c(c1)CCN2C(=O)CCC(=O)O	-6	-4
53	Cc1cc(Cl)ccc1OCC(=O)OCC(=O)N1CCCCC1	x	-6
54	Cc1ccccc1NS(=O)(=O)c1ccc(CCN2C(=O)c3cccnc3C2=O)cc1	7	-13
55	Cc1ccc(-n2c(SCCc3c(C)noc3C)nnc2-c2ccc(Cl)cc2)cc1	-13	-12
56	CCCCNC(=O)Cc1n[nH]c(=O)c2ccccc12	3	-3
57	CCc1ccccc1NC(=O)Cn1nnc(C(=O)NCCc2ccccc2)c1N	-26	-11
58	O=C(CSc1nnc(-c2ccco2)o1)OCc1cc(F)cc2c1OC(c1ccccc1)OC2 (configuration not stated)	-6	-92
59	CC(CO)NCc1ccccc1 (configuration not stated)	-16	2
60	CSc1nnc(CCN2CCN(C)CC2)n1C	11	-6

no.	PV pol inh	PV pol inh intensity
51	100	104
52	100	102
53	102	95
54	102	102
55	105	112
56	102	101
57	104	101
58	109	130
59	102	105
60	100	103

# The results go on.
no.	SMILES	Mtb MenB inh	MbtI inh
61	CCOC(=O)c1ccc(NC(=O)Cc2noc3ccccc23)cc1	-26	-6
62	O=S(=O)(NCCCN1CCOCC1)c1ccccc1	-23	-19
63	COc1ccc(-n2cnnc2SCc2ncc(-c3ccccc3)o2)cc1	-24	4
64	CC1CCN(c2nc3nonc3nc2N2CCC(C)CC2)CC1	-23	-10
65	O=C(Nc1c[nH]c2ccccc12)N1CCCc2ccccc21	-32	8
66	N#CCCCSc1nc2ccccc2c(=O)n1Cc1ccccc1	-33	-5
67	C/C=C(/C(=O)O)c1ccccc1OC	-6	x
68	CC(C)c1ccc(C2=C(O)c3ccccc3C(=O)C2=O)cc1	-2	5
69	O=C(O)CSc1ccccc1C(=O)O	10	9
70	CC(SCC(=O)N1c2ccccc2CC1C)C(=O)O (configuration not stated)	-18	11

no.	PV pol inh	PV pol inh intensity
61	105	106
62	100	103
63	101	110
64	107	100
65	102	104
66	101	99
67	112	108
68	102	97
69	104	104
70	99	95

# Some of the entries so far, with values under each structure:
# Every second line gives: Mtb MenB inh	MbtI inh	PV pol inh	PV pol inh intensity
65	O=C(Nc1c[nH]c2ccccc12)N1CCCc2ccccc21
 : -32	8	102	104
66	N#CCCCSc1nc2ccccc2c(=O)n1Cc1ccccc1
 : -33	-5	101	99

# (list continues)
no.	SMILES	Mtb MenB inh	MbtI inh
71	Cc1ncsc1C(=O)O	-28	25
72	O=C(c1ccc(F)cc1)N1CCCCC(Sc2nnc3sc4ccccc4n23)C1=O (configuration not stated)	-34	-1
73	NNC(=O)c1ccc(C(F)(F)F)cc1	0	-10
74	CCC(C)C(=O)Nc1ccc(C(C)CC)cc1 (configuration not stated)	-12	-10
75	O=C(Nc1ccccc1)C1C2C=CC3(O2)C1C(=O)N(C1CCCC1)C3C(=O)NC1CCCCC1 (configuration not stated)	-10	0
76	CSc1ncccc1C(=O)OCCCCN1C(=O)c2ccccc2C1=O	1	-7
77	COC(=O)c1ccccc1NC(=O)n1ncc2cc(Cl)ccc21	-7	-15
78	COc1ccc(-c2nn(C)c3ccccc23)cc1	5	x
79	CS(=O)(=O)N1Cc2ccccc2CC1C(=O)OCc1nnc(-c2ccc(Cl)cc2)o1 (configuration not stated)	-9	-15
80	Cc1c(C(=O)Cc2c(O)c3ccccc3oc2=O)sc2nc(C(F)(F)F)nn12	-7	-1

no.	PV pol inh	PV pol inh intensity
71	100	100
72	104	107
73	101	103
74	106	102
75	102	102
76	107	103
77	102	102
78	103	105
79	105	106
80	104	102

# (more compounds)
no.	SMILES	Mtb MenB inh	MbtI inh
81	C/C(=C/C(=O)C(F)(F)F)N1CCN(S(=O)(=O)/C=C/c2ccccc2)CC1	2	8
82	COc1ccc(P(=O)(CC(=O)O)c2ccc(OC)cc2)cc1	27	-6
83	CC(C)C(=O)Nc1ccccc1C(F)(F)F	-10	x
84	CN(CC(=O)Nc1sccc1C#N)C1CCCCC1	1	1

no.	PV pol inh	PV pol inh intensity
81	106	101
82	101	104
83	107	102
84	115	122

# Structures from the list above that contain an aryl methoxy group:
no.	SMILES	Mtb MenB inh	MbtI inh
9	COc1ccc(C(=O)Oc2c(C)cc(C(O)(C(F)(F)F)C(F)(F)F)cc2C)cc1	-24	x
18	COc1cccc(C(=O)CN2C(=O)/C(=C/c3ccco3)N=C2c2ccccc2)c1	-20	3
23	COC(=O)c1ccc(OC)c(CSc2nnc(COc3cc(C)cc(C)c3)o2)c1	-26	28
28	COc1ccccc1/C=C1\SC(=O)N(CC(=O)N2CCOCC2)C1=O	-37	2
32	COc1cccc(NC(=O)CSc2nnc(C)o2)c1	6	-14
45	COc1ccc(Cl)cc1NC(=O)c1cc2c(Cl)nc3ccc(C)cc3c2s1	-11	0
63	COc1ccc(-n2cnnc2SCc2ncc(-c3ccccc3)o2)cc1	-24	4
67	C/C=C(/C(=O)O)c1ccccc1OC	-6	x
78	COc1ccc(-c2nn(C)c3ccccc23)cc1	5	x
82	COc1ccc(P(=O)(CC(=O)O)c2ccc(OC)cc2)cc1	27	-6

no.	PV pol inh	PV pol inh intensity
9	104	100
18	100	97
23	102	102
28	102	104
32	100	108
45	101	98
63	101	110
67	112	108
78	103	105
82	101	104

# The order is random; overall some 1.8% were active at least once.
